MITF inh = MITF inhibition; TRPM1 promoter luciferase, luminescence, 24 h; AID 2240; inhibition, % (concentration not given with the values); 37,000 tested, 0.28% active;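 active = most replicates at 85% or more, or half of them and the mean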;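 also: human melanocyte line stably carrying TRPM1 promoter luciferase reporter; 0% = vehicle wells and 100% = a positive control; the first replicate is given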
Hedgehog inh = Sonic Hedgehog pathway inhibition | Shh-LIGHT2 Gli-luciferase reporter, 30 h | 22,000 tested, 2.1% active | inhibition, % (test concentration not listed) | AID 2313;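 active = replicate mean of 65% or more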;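 also: pathway switched on by Shh-conditioned medium diluted 1 in 25 in low serum; 100 nL library stock added to about 40 µL; 0% = median of neutral wells and 100% = positive control level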
YB-1 expr inh = YB-1 expression inhibition; U2OS, qRT-PCR YB-1 vs CDIP delta delta Cp, 16 h; active compounds read high; zero = DMSO, each unit about twofold; delta delta Cp (YB-1 minus CDIP) (test concentration not listed); 30,000 tested, 0.37% active; AID 434959;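 active = delta delta Cp rounded down to an integer at or above 3, about 3 SD of DMSO wells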;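 also: higher means less YB-1 transcript or more CDIP transcript relative to DMSO; stock transfer was 100 nL into about 100 µL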
PD-1 reversal = reversal of PD-1 mediated T-cell inhibition; 29,000 tested, under 10 active; activation, % (no concentration beside the values); primary human CD4 T cells, PD-L1 beads, CellTiter-Glo 96 h;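 active = replicate mean of 50% or more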;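 also: 0% = median vehicle wells and 100% = positive control; 100 nL library stock added to about 50 µL; numbers are from one replicate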
Active calls of the source: *; nt = no result given. An excerpt; rates above refer to the full screens.

Screens in order: MITF inh | Hedgehog inh | YB-1 expr inh | PD-1 reversal
C[C@H]1CN([C@@H](C)CO)C(=O)c2cc(NS(=O)(=O)c3ccc(Cl)cc3)ccc2O[C@@H]1CN(C)Cc1ccccc1
  -2 | nt | -0.065 | -0.7
COc1ccc(NC(=O)Nc2ccc3c(c2)C(=O)N([C@H](C)CO)C[C@H](C)[C@H](CN(C)CC2CC2)OCCCC[C@@H](C)O3)cc1
  -7 | -11 | 0.014 | 1.2
COc1ccc(C(=O)NC(c2ccccc2)c2ccccc2)cc1
  7 | 23 | 0.042 | -0.6
Cc1ccc(NS(=O)(=O)c2cc(C(=O)NCC3CCCO3)ccc2Cl)c(C)c1 (stereo not given)
  0 | nt | nt | 1.5
Cc1ccc(S(=O)(=O)/C=C/C#N)cc1
  89* | 98* | 0.15 | -60
C[C@H]1CN([C@@H](C)CO)C(=O)Cc2cc(NS(=O)(=O)c3ccccc3)ccc2O[C@H]1CN(C)Cc1ccc2c(c1)OCO2
  -5 | 16 | 0.53 | -0.7
C[C@H](CO)N1C[C@H](C)[C@H](CN(C)S(=O)(=O)c2cn(C)cn2)Oc2ccc(NC(=O)CCC(F)(F)F)cc2CC1=O
  -2 | -12 | 0.14 | 0.4
CC(=O)Nc1ccc(S(=O)(=O)Nc2c(C)nn(-c3ccccc3)c2C)cc1
  38 | nt | nt | 0.5
Cc1cc(I)cnc1NC(=O)COc1ccc([N+](=O)[O-])cc1
  -23 | nt | nt | 1.1
CCOC(=O)c1sc(NC(=O)C(C)(C)Oc2ccc(Cl)cc2)c(C#N)c1C
  15 | nt | nt | -2.5
C[C@H](CO)N1C[C@H](C)[C@H](CN(C)S(=O)(=O)c2ccc(F)cc2)Oc2ccc(NC(=O)Nc3ccc4c(c3)OCO4)cc2CC1=O
  28 | -55 | 0.089 | 0.1
CC(NS(=O)(=O)c1ccc(Cl)cc1)C(=O)Nc1cccc([N+](=O)[O-])c1 (stereo not given)
  4 | nt | nt | 1.1
COc1ccc(NC(=O)CCN2C(=O)c3ccccc3S2(=O)=O)cc1
  -10 | nt | nt | 1.3
C[C@H](CO)N1C[C@H](C)[C@H](CN(C)S(=O)(=O)c2ccccc2)Oc2ccc(NC(=O)Cn3cnnn3)cc2C1=O
  3 | nt | -1 | 1.0
Cc1ccc(NC(=O)CN(c2cc(Cl)c(Cl)cc2Cl)S(C)(=O)=O)cc1
  4 | nt | nt | 1.4
C[C@@H]1CN([C@@H](C)CO)C(=O)c2cccc(NC(=O)c3ccncc3)c2O[C@H]1CN(C)S(=O)(=O)c1ccc(F)cc1
  -4 | -8 | -0.19 | nt
C[C@@H]1CN([C@@H](C)CO)C(=O)c2cccc(NC(=O)C3CC3)c2O[C@H]1CN(C)C(=O)Nc1ccc(C(F)(F)F)cc1
  -3 | -10 | 0.27 | 0.2
C[C@@H]1CCCCO[C@@H](CN(C)C(=O)Nc2ccc3c(c2)OCO3)[C@@H](C)CN([C@H](C)CO)C(=O)c2cc(NS(=O)(=O)c3ccc(F)cc3)ccc2O1
  3 | 7 | -0.027 | -2.2
Cc1ccc(S(=O)(=O)Nc2ccc3c(c2)CC(=O)N([C@H](C)CO)C[C@H](C)[C@H](CN(C)S(=O)(=O)c2ccc(F)cc2)O3)cc1
  3 | -2 | -0.047 | nt
C[C@@H]1CCCCO[C@@H](CN(C)CC2CC2)[C@@H](C)CN([C@H](C)CO)C(=O)c2cc(NC(=O)C3CCCCC3)ccc2O1
  3 | nt | 0.051 | 0.7
COc1ccc(S(=O)(=O)Nc2ccc3c(c2)C(=O)N([C@H](C)CO)C[C@H](C)[C@H](CN(C)Cc2ccc(Cl)c(Cl)c2)OCCCC[C@@H](C)O3)cc1
  42 | 9 | -0.058 | -5.5
C[C@H]1CN([C@@H](C)CO)C(=O)c2cc(NS(=O)(=O)c3cccs3)ccc2O[C@H]1CN(C)S(=O)(=O)c1ccc(Cl)cc1
  -16 | 13 | -0.17 | -2.3
COc1cc(C(=O)NC2(C(F)(F)F)C(=O)N(Cc3ccco3)C3=C2C(=O)CC(C)(C)C3)cc(OC)c1OC (stereo not given)
  6 | nt | nt | 0.2
C[C@@H]1CN([C@@H](C)CO)C(=O)c2cccc(NC(=O)Nc3ccccc3)c2O[C@H]1CN(C)C(=O)Nc1cccc2ccccc12
  6 | -6 | -0.29 | 1.3
Cc1ccc2nc(Nc3nc(CSc4nnc(C)s4)cc(=O)[nH]3)nc(C)c2c1
  7 | nt | nt | -1.5
CC(C)(C)c1ccc2cc(C#N)c(C#N)cc2c1
  5 | -23 | 0.11 | -0.1
C[C@H](CO)N1C[C@H](C)[C@H](CN(C)Cc2ccc(C(=O)O)cc2)Oc2ccc(NC(=O)Nc3cccc4ccccc34)cc2CC1=O
  -5 | nt | -0.47 | 1.1
COc1ccc(S(=O)(=O)N(C)C[C@H]2Oc3c(NS(=O)(=O)c4cn(C)cn4)cccc3C(=O)N([C@@H](C)CO)C[C@H]2C)cc1
  -5 | nt | -0.55 | 0.5
C[C@@H]1CN([C@H](C)CO)C(=O)c2cccc(NC(=O)c3ccc(-c4nccs4)cc3)c2O[C@@H]1CN(C)Cc1ccc(C(F)(F)F)cc1
  -1 | 21 | 0.28 | -2.9
CC1CC(=O)c2c(ccc3c2C(=O)c2cccc(O)c2C3O)C1 (stereo not given)
  4 | -10 | 0.055 | -7.1
O=C(O)C1C2C=CC(C2)C1C(=O)Nc1ccc(C(=O)N2CCCCC2)cc1 (stereo not given)
  -15 | nt | nt | 0.6
C[C@@H]1CN([C@H](C)CO)C(=O)Cc2cc(NC(=O)c3ccncc3)ccc2O[C@H]1CN(C)C(=O)Nc1cccc2ccccc12
  -3 | -22 | 0.048 | nt
C[C@H]1CN([C@@H](C)CO)C(=O)c2cc(NS(=O)(=O)c3ccccc3)ccc2O[C@H]1CN(C)Cc1ccc(-c2ccccc2)cc1
  -1 | -8 | 0.23 | 0.0
C[C@@H]1CCCCO[C@H](CN(C)Cc2ccc(C(=O)Nc3ccccc3N)cc2)[C@@H](C)CN([C@H](C)CO)C(=O)c2cc(NS(=O)(=O)c3cccs3)ccc2O1
  16 | nt | -0.58 | -2.2
C[C@@H]1CN([C@@H](C)CO)C(=O)c2cc(NC(=O)CCC(F)(F)F)ccc2O[C@@H]1CN(C)C(=O)Nc1cccc2ccccc12
  -8 | nt | -0.046 | 0.2
Cc1noc(C)c1NC(=O)Nc1cccc2c1O[C@@H](CN(C)C(=O)NC1CCCCC1)[C@@H](C)CN([C@H](C)CO)C2=O
  1 | -50 | -0.65 | 1.3
COc1ccc(NC(=O)Nc2ccc3c(c2)C(=O)N([C@H](C)CO)C[C@H](C)[C@H](CN(C)C(=O)Nc2ccc(OC)cc2)OCCCC[C@@H](C)O3)cc1
  13 | -21 | 0.17 | nt
CCc1ccc(NC(=O)CN(C)S(=O)(=O)c2ccc3ccccc3c2)cc1
  20 | nt | nt | -0.2
C[C@@H]1CN([C@@H](C)CO)C(=O)c2cc(NC(=O)Nc3ccccc3)ccc2O[C@@H]1CN(C)C(=O)Nc1ccc2c(c1)OCO2
  -13 | -15 | -0.044 | -1.2
C[C@H]1CN([C@@H](C)CO)C(=O)Cc2cc(NC(=O)NC3CCCCC3)ccc2O[C@H]1CN(C)S(=O)(=O)c1ccccc1
  0 | nt | -0.56 | -0.3
COc1cc(O)c(OC)c2c1C(=O)CC(c1ccccc1)O2 (stereo not given)
  -10 | 11 | 0.6 | -0.6
C[C@@H]1CN([C@@H](C)CO)C(=O)c2cc(NC(=O)C3CCCCC3)ccc2O[C@@H]1CN(C)C(=O)Nc1ccc(C(F)(F)F)cc1
  32 | -1 | 0.21 | -3.7
O=C1c2ccc(-c3ncc(-c4ccccc4)o3)cc2C(=O)N1c1ncn[nH]1
  8 | nt | -0.018 | 0.1
C=C(C(=O)O)C1CCC(CCC)OC1=O (stereo not given)
  nt | -10 | 0.68 | nt
Cc1noc(C)c1S(=O)(=O)Nc1cccc2c1O[C@H](CN(C)C(=O)NC1CCCCC1)[C@H](C)CN([C@H](C)CO)C2=O
  -15 | -25 | 0.37 | 0.3
C[C@@H]1O[C@@H](O[C@H]2[C@H](O)[C@@H](O[C@@H]3O[C@H](CO)[C@@H](O)[C@H](O[C@@H]4O[C@H](CO)[C@@H](O)[C@H](O)[C@H]4O)[C@H]3O)[C@H](O[C@H]3CC[C@@]4(C)C(=CC[C@@H]5C4CC[C@@]4(C)C5C[C@@H]5O[C@]6(CC[C@@](C)(CO[C@@H]7O[C@H](CO)[C@@H](O)[C@H](O)[C@H]7O)O6)[C@@H](C)[C@@H]54)C3)O[C@@H]2CO)[C@H](O)[C@H](O)[C@H]1O (stereo not given in full)
  6 | 70* | 0.76 | -9.4
C[C@H]1CN([C@@H](C)CO)C(=O)Cc2cc(NC(=O)Cc3ccccc3)ccc2O[C@@H]1CN(C)S(=O)(=O)c1ccc(Cl)cc1
  12 | 23 | 0.05 | nt
CNC[C@@H]1Oc2ccc(NC(=O)Nc3ccccc3)cc2C(=O)N([C@@H](C)CO)C[C@@H]1C
  -7 | -64 | 0.04 | -0.9
Cc1ccc(-c2nc3ncccc3o2)cc1NC(=O)C(C)Oc1ccc(Cl)cc1Cl (stereo not given)
  -15 | nt | nt | 1.9
COc1ccc(CN(C)C[C@H]2Oc3ccc(NC(=O)Nc4c(C)noc4C)cc3CC(=O)N([C@@H](C)CO)C[C@H]2C)cc1
  -6 | nt | -0.23 | -0.2
C[C@H]1CN([C@@H](C)CO)C(=O)c2cccc(NC(=O)Nc3ccc(C(F)(F)F)cc3)c2O[C@@H]1CN(C)C(=O)NC1CCCCC1
  18 | 19 | -0.16 | -1.3
COC(=O)Cc1c(CCC(=O)O)oc2cc(C)cc(O)c2c1=O
  nt | -19 | 0.16 | nt
C[C@H](CO)N1C[C@H](C)[C@H](CN(C)Cc2ccc(C(F)(F)F)cc2)Oc2c(NS(=O)(=O)c3cccs3)cccc2C1=O
  -6 | -3 | 0.51 | -3.7
CC(C)NC(=O)Nc1cccc2c1O[C@@H](CN(C)Cc1ccc(Cl)c(Cl)c1)[C@H](C)CN([C@H](C)CO)C2=O
  7 | 23 | 0.39 | -2.4
C[C@H](CO)N1C[C@H](C)[C@H](CN(C)C(=O)Nc2ccc(C(F)(F)F)cc2)Oc2c(NS(=O)(=O)c3ccccc3)cccc2C1=O
  22 | -11 | 0.28 | -3.3
CC(C)NC(=O)N(C)C[C@H]1Oc2c(NS(=O)(=O)c3ccccc3)cccc2C(=O)N([C@H](C)CO)C[C@H]1C
  -4 | -7 | 0.27 | 1.9
Cc1ccc(C(C)C)cc1OCC(O)Cn1cnc2ccccc21 (stereo not given)
  53 | nt | nt | -2.5
Cc1ccc(S(=O)(=O)Nc2ccc3c(c2)C(=O)N([C@@H](C)CO)C[C@H](C)[C@@H](CN(C)C(=O)Nc2ccccc2)O3)cc1
  -5 | nt | -0.42 | 0.2
CNC[C@H]1Oc2c(NC(=O)c3cc(C)nn3C)cccc2C(=O)N([C@H](C)CO)C[C@H]1C
  0 | -6 | 0.023 | 1.8
C[C@H]1CN([C@@H](C)CO)C(=O)Cc2cc(NC(=O)c3ccncc3)ccc2O[C@H]1CN(C)S(=O)(=O)c1ccc(F)cc1
  9 | -3 | 0.16 | nt

Other records
Screens in order: MITF inh | Hedgehog inh | YB-1 expr inh | PD-1 reversal
O=C(Nc1nc(-c2ccccc2)cs1)C12CC3CC(CC(C3)C1)C2
  -20 | -86 | 0.23 | -0.1
Cc1noc(C)c1S(=O)(=O)Nc1ccc2c(c1)C(=O)N([C@H](C)CO)C[C@H](C)[C@@H](CN(C)C(=O)Nc1ccc(C(F)(F)F)cc1)O2
  2 | 13 | -0.38 | -0.9
CNC[C@H]1Oc2c(NC(=O)c3ccc(-c4nccs4)cc3)cccc2C(=O)N([C@H](C)CO)C[C@H]1C
  -24 | -20 | -0.24 | nt
COc1ccc(NC(=O)CSc2nc(-c3ccccc3)cc(C(F)(F)F)n2)c([N+](=O)[O-])c1
  4 | nt | nt | -0.8
CCCC(CCC)c1nc2ccncc2[nH]1
  -1 | -9 | -0.045 | 2.6
COc1cc(CO)ccc1OCC(=O)Nc1ccc(C)cc1
  -94 | nt | nt | 1.2
C[C@H](CO)N1C[C@H](C)[C@H](CN(C)C(=O)Nc2ccc3c(c2)OCO3)Oc2ccc(NC(=O)Nc3ccc(F)cc3)cc2C1=O
  -14 | -15 | -0.091 | -3.7
C[C@H]1CN([C@@H](C)CO)C(=O)c2cc(NC(=O)Nc3cccc4ccccc34)ccc2O[C@H]1CN(C)C(=O)Nc1ccc2c(c1)OCO2
  1 | nt | -0.36 | -2.5
COc1ccc(C)cc1S(=O)(=O)NCCO
  -7 | nt | nt | 1.8

Just YB-1 expr inh, Hedgehog inh and MITF inh, for some of the entries so far:
Structure | YB-1 expr inh | Hedgehog inh | MITF inh
CCCC(CCC)c1nc2ccncc2[nH]1 | -0.045 | -9 | -1
COc1cc(CO)ccc1OCC(=O)Nc1ccc(C)cc1 | nt | nt | -94
C[C@H](CO)N1C[C@H](C)[C@H](CN(C)C(=O)Nc2ccc3c(c2)OCO3)Oc2ccc(NC(=O)Nc3ccc(F)cc3)cc2C1=O | -0.091 | -15 | -14

Compound activity (PubChem)
